Screens deposited in PubChem BioAssay by Center for Chemical Genomics, University of Michigan.
CDC25B-CDK2 inh = human CDC25B-CDK2/CyclinA binding inhibition | HTRF CDC25B-CDK2/CyclinA binding, anti-His/anti-Flag; stronger effect = higher value | P30305+P24941 | z-score (no concentration beside the values) | actives 0.72% (n = 94,000);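 further: score is relative to mean and SD of negative controls; strong numbers were not always called active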
HIV TAR-Tat = HIV-1 TAR-Tat binding disruption; HIV-1 TAR RNA, Tat peptide displacement FRET; stronger effect = higher value; z-score (concentration not given with the values); actives 0.6% (n = 100,000); AID 1259389;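 further: score is relative to mean and SD of negative controls; some compounds called inactive have numbers as strong as hits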
Numbers without * were called inactive; nt = no result given.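 How the source made its calls: active means z-score from 3 up in half or more of its runs; inactive means the rest.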

Values run as follows: CDC25B-CDK2 inh	HIV TAR-Tat
1: CCn1c(SCc2cc(=O)c3c(C)ccc(C)c3[nH]2)nnc1-c1cccs1
→ nt	0.57
2: O=C(C1CC1)N1CCc2cc(S(=O)(=O)NCc3ccc4c(c3)OCO4)ccc21
→ -1.29	nt
3: O=c1c2nccnc2nc(SCc2ccc(F)cc2)n1Cc1ccc(Cl)cc1
→ -0.7	-10.1
4: COc1ccc(-c2nnc3c4cc5c(cc4n(Cc4cccc(F)c4)cc2-3)OCCO5)cc1
→ -0.36	-3.99
5: CCCNC(=O)c1oc2c(c1C)-c1nc(C)sc1CC2
→ nt	1.09
6: O=C1CCCc2cc(S(=O)(=O)NCC3CCC(C(=O)N4CCc5ccccc5C4)CC3)ccc2N1 (stereo not drawn)
→ nt	0.33
7: CCOC(=O)c1ncoc1-c1ccco1
→ -1.15	nt
8: CN(C)c1ccc(C(CNS(=O)(=O)c2ccc(F)cc2)N(C)C)cc1 (stereo not drawn)
→ nt	-0.74
9: Cc1cc2c(cc1S(=O)(=O)N1CCN(C3CCCCC3)CC1)n(C)c(=O)c(=O)n2C
→ nt	0.76
10: O=c1n(Cc2ccc(F)cc2)c2ccccc2c2nc(-c3ccccc3)nn12
→ -0.67	2.11
11: C[N+]1(C)CCCC(OC(=O)C(O)(c2ccccc2)c2ccccc2)C1 (stereo not drawn)
→ nt	2.75
12: N#Cc1cc2c(nc1SCC(=O)Nc1ccc(S(=O)(=O)Nc3nccs3)cc1)CCCC2
→ -2.2	0.78
13: O=C(c1cnn2c1NC(c1ccc(Br)cc1)CC2C(F)(F)F)N1CCOCC1 (stereo not drawn)
→ -0.65	2.05
14: O=C(O)c1cc(N(Cc2ccccc2O)Cc2ccccc2O)ccc1O
→ nt	2.04
15: Cc1ccc(-c2ccc(C)cc2[N+](=O)[O-])c([N+](=O)[O-])c1
→ -1.47	nt

Carrying on:
Values run as follows: CDC25B-CDK2 inh	HIV TAR-Tat
16: COc1ccccc1N1CCN(S(=O)(=O)c2c(C)nc3sccn3c2=O)CC1
→ nt	-2.41
17: CC(C)N1CC23C=CC(O2)C(C(=O)O)C3C1=O (stereo not drawn)
→ -1.03	-0.54
18: COc1ccccc1Nc1nc2c(S(=O)(=O)c3ccccc3)nnn2c2ccccc12
→ 1.02	0.54
19: CCCCOC(=O)CSc1nc2c(cc1C#N)CCC2
→ -1.36	1.61
20: CC(C)CCNC(=O)C1(C)CCC(=O)N1CCN1CCN(C)CC1 (stereo not drawn)
→ 0.07	1
21: COc1ccc(Nc2ncnc3c2nc2n3CCCCC2)cc1Cl
→ nt	0.71
22: COC(=O)c1cc(-c2ccc(S(=O)(=O)NC3CCCC3)s2)on1
→ nt	-0.19
23: CC(C)CCNC(=O)C1(C)Cn2nc(C(=O)NCC3CCCO3)cc2C(=O)N1C (stereo not drawn)
→ nt	0.29
24: N#Cc1ccc(C(c2ccc(C#N)cc2)(C(F)(F)F)C(F)(F)F)cc1
→ -1.92	nt
25: CC(C)(C)c1cc(C(=O)/C(C#N)=N/Nc2cccc(Cl)c2)no1
→ -1.05	nt
26: O=c1[nH]c(SCc2cccc(Br)c2)nc2c1CCCC2
→ -0.26	-0.31
27: O=C(Nc1ccc2oc(-c3cccc(Br)c3)nc2c1)c1ccc2c(c1)OCCO2
→ 0.4	nt
28: CC(=O)Nc1cc2nc3[nH]c(=O)n(C4CCCCC4)c(=O)c3nc2cc1C
→ -0.95	-6.07
29: O=C(c1noc2c1CCc1sccc1-2)N1CC=C(c2ccccc2)CC1
→ nt	-0.14
30: O=C(c1ccc(F)cc1)N(Cc1cccc(F)c1)C1CCS(=O)(=O)C1 (stereo not drawn)
→ -0.26	-0.01

An excerpt of these results, with each value named:
[23] CC(C)CCNC(=O)C1(C)Cn2nc(C(=O)NCC3CCCO3)cc2C(=O)N1C (stereo not drawn)
  CDC25B-CDK2 inh: nt | HIV TAR-Tat: 0.29

[24] N#Cc1ccc(C(c2ccc(C#N)cc2)(C(F)(F)F)C(F)(F)F)cc1
  CDC25B-CDK2 inh: -1.92 | HIV TAR-Tat: nt

[25] CC(C)(C)c1cc(C(=O)/C(C#N)=N/Nc2cccc(Cl)c2)no1
  CDC25B-CDK2 inh: -1.05 | HIV TAR-Tat: nt

[26] O=c1[nH]c(SCc2cccc(Br)c2)nc2c1CCCC2
  CDC25B-CDK2 inh: -0.26 | HIV TAR-Tat: -0.31

Along the list, from the results shown:
Compounds 23–30 in HIV TAR-Tat read 0.29, nt, nt, -0.31, nt, -6.07, -0.14, -0.01
Compounds 23–30 in CDC25B-CDK2 inh read nt, -1.92, -1.05, -0.26, 0.4, -0.95, nt, -0.26

(listing goes on)
Values run as follows: CDC25B-CDK2 inh	HIV TAR-Tat
31: Fc1ccc(N2CCN(c3nc(-c4ccccc4)no3)CC2)cc1
→ nt	1.21
32: CNC(=O)C(=O)c1c(-c2ccc(Br)cc2)[nH]c2ccccc12
→ -0.96	-0.43
33: FC(F)(F)c1ccc(Cl)c(NC(=S)N/N=C/c2ccccc2Cl)c1
→ -0.88	nt
34: COc1ccc(C2CC(=O)Nc3cc(OC)c(OC)cc32)cc1 (stereo not drawn)
→ -1.23	-0.22
35: O=C(Nc1nnc2n1CCCS2)c1cccc(F)c1
→ nt	1.31
36: Cc1cc(C)c(C(=O)N2CCOCC2)c(CC(C)(C)C(=O)O)c1
→ -1.88	nt
37: COc1ccc(C2=C(C)C(Nc3ccc(OC)cc3OC)=NS2(=O)=O)cc1
→ -5.1	-1.85
38: c1ccc(CSc2ncnc3nc[nH]c23)cc1
→ -1.15	1.59
39: N#CCC(=O)NCC1CCCO1 (stereo not drawn)
→ -1.78	nt
40: CCC(C)(C)Nc1c(-c2cc(C)c(C)cc2C)c(=O)c1=O
→ nt	1.04
41: CSc1ccc(NC(=O)N2CC(C)OC(C)C2)cc1 (stereo not drawn)
→ -1.69	-1.25
42: Cc1ccc2nc(C3=C(O)CN(CCCN4CCOCC4)C3=N)[nH]c2c1
→ -4.46	1.1
43: COc1cc2ccccc2cc1C(=O)Nc1sc2c(c1C(N)=O)CCCC2
→ -1.47	0.8
44: CC(C)n1c(SCC(=O)Nc2ccc(Cl)cc2)nc2cc(Cl)ccc21
→ -2.07	nt
45: CCOC(=O)c1c(C)n(-c2ccc(N(C)C)cc2)c2ccc(OCC(N)=O)cc12
→ -1.55	-1.02

(cont.)
Values run as follows: CDC25B-CDK2 inh	HIV TAR-Tat
46: CC(C)NS(=O)(=O)c1cc2c3c(c1)CC(=O)N3CCC2
→ nt	1.08
47: O=C1N(c2ccc(-c3ccccc3)cc2)C(c2ccccc2F)N2CCCN12 (stereo not drawn)
→ -1.47	1.08
48: Cc1cc(C)n2nc(CNC(=O)Nc3ccc(Cl)cc3)nc2n1
→ 0.4	0.62
49: Cc1cccc(-c2nnc(C3CCNCC3)o2)c1
→ -0.3	0.56
50: Cc1nc(N2CCCC2)c2c(C(=O)NCc3ccco3)c(C)oc2n1
→ nt	1.19
51: CC1CCC(N2CCN(C(=O)c3ccco3)CC2)CC1 (stereo not drawn)
→ -1.27	1.47
52: COCCCN1C(=O)c2cc3sccc3n2CC1(C)C(=O)NC1CCCCC1 (stereo not drawn)
→ -2.04	1.56
53: C=CCNC(=O)C1(c2ccc(NC(=O)c3cccs3)cc2)CCC1
→ nt	1.12
54: CCc1nnc2c(Nc3ccccc3Br)nc3ccccc3n12
→ -1.44	1.07
55: CC(=O)N1CCSc2ccc(S(=O)(=O)Nc3ccc(Cl)cc3)cc21
→ nt	1.57
56: CC(C)c1ccc(CN(C(=O)c2cc(-c3cccs3)on2)C2CCS(=O)(=O)C2)cc1 (stereo not drawn)
→ -2.54	0.02
57: O=C(Nc1cccc(Br)c1)N1CCCC(CN2CCc3ccccc3C2)C1 (stereo not drawn)
→ nt	-1.54
58: CC1=C(c2ccc(C)c(C)c2)S(=O)(=O)N(Cc2ccc(C(=O)N3CCC(C(N)=O)CC3)cc2)C1=O
→ nt	0.42
59: CC(=O)N1c2ccc(S(=O)(=O)NC(C(=O)Nc3nc(C)cs3)C(C)C)cc2CC1C (stereo not drawn)
→ nt	-0.71
60: COC(=O)C1C(c2ccc(F)cc2)c2c([nH][nH]c2=O)CC1(C)O (stereo not drawn)
→ -0.34	-0.95

The results go on.
Values run as follows: CDC25B-CDK2 inh	HIV TAR-Tat
61: CCOC(=O)c1sc2nc(C3CC3)cc(-c3ccc(OC)cc3)c2c1N
→ -2.07	1.36
62: O=C(Oc1cc(=O)n(-c2ccccc2)c2ccccc12)c1ccccc1
→ -2.03	nt
63: CCn1nnc(NCc2ccc(OCc3ccc(Cl)cc3)c(OC)c2)n1
→ nt	0.66
64: O=C(NCc1ccc(-c2cccs2)s1)c1ccc(Cl)cc1
→ -2.88	nt
65: CCN(c1ccccc1)S(=O)(=O)c1cc2c3c(c1)CC(=O)N3CCC2
→ nt	1.68
66: CCOC(=O)C(C)Oc1cc2c(C(=O)OC)c(C)oc2cc1Br (stereo not drawn)
→ -0.15	nt
67: Cc1cc(NC(=O)CN2C(=O)C(C)(C)c3cc(S(=O)(=O)N4CCCC4)ccc32)no1
→ nt	-0.56
68: Cc1nn(-c2ccccc2)nc1-c1nnc(-c2ccccc2)o1
→ -0.58	nt
69: CCCCCCNc1ncnc2c1sc1nc3c(cc12)COC(C)(C)C3
→ -1.52	2.68
70: COc1cc(NC(=O)C2CCC2)cc2sc(NS(=O)(=O)c3ccccc3)nc12
→ nt	0.82
71: CCOC(=O)c1noc2nc(C)nc(Nc3ccc(Br)cc3C)c12
→ nt	0.83
72: CC(=O)NC1=NN(C(C)=O)C(c2ccc(-c3ccc(Br)cc3)o2)S1 (stereo not drawn)
→ -1.5	0.07
73: CC(C)CC(NC(=O)C1CCC(C)CC1)C(=O)Nc1ccc2c(c1)OCCO2 (stereo not drawn)
→ 1.17	0.64
74: Cc1c(-c2nc(-c3ccccc3F)no2)nnn1-c1ccccc1Cl
→ nt	0.95
75: O=c1[nH]c2ccccc2c(=O)n1CCSc1ccc(Cl)cc1
→ -0.77	nt

The list goes on:
Values run as follows: CDC25B-CDK2 inh	HIV TAR-Tat
76: Cc1cccc(-n2ncc3c2ncn2nc(-c4ccccc4Cl)nc32)c1
→ -0.31	1.58
77: CCOc1ccc(/C=C/c2nc(C#N)c(Nc3ccc(OCC)cc3)o2)cc1
→ -1.95	1.17
78: CCC(CC)C(=O)OCc1cc(=O)n2nc(CC(C)C)sc2n1
→ nt	0.83
79: CCOc1cccc(C2N=C(N)Nc3nc4ccccc4n32)c1 (stereo not drawn)
→ -0.85	0.38
80: Cn1c(=O)c2c(nc(CN3CCN(c4ccccc4)CC3)n2CCCO)n(C)c1=O
→ -0.46	nt
81: Cc1ccc2c(c1)C(=O)OC(C(=O)Nc1nc3c(s1)CCCC3)C2 (stereo not drawn)
→ -0.77	0.91
82: Cc1[nH][nH]c(=O)c1C(c1cccnc1)c1c(C)[nH][nH]c1=O
→ -1.62	0.51
83: CCN(CC)c1ccc(NS(=O)(=O)c2ccc3c(c2)oc(=O)n3C)c(C)c1
→ -0.96	2.54
84: C=CCN(CC=C)S(=O)(=O)c1ccc(NC(=O)c2csnn2)cc1
→ 0.5	0.07
85: Cc1ccc(S(=O)(=O)c2cn(Cc3cccc(Cl)c3)c3cc4c(cc3c2=O)OCO4)cc1
→ -1.23	-1.07
86: Cc1ccc(C)c(Cn2cccc2CNC(=O)NCc2ccco2)c1
→ nt	0.03
87: COc1ccc(-c2nc3n(n2)C(c2ccc(Cl)cc2)C2=C(CCCC2=O)N3)cc1 (stereo not drawn)
→ 0.04	1.15
88: COc1ccc(N2CCN(S(=O)(=O)c3ccc4c(c3)C(C(C)C)C(=O)N4)CC2)cc1 (stereo not drawn)
→ nt	1.5
89: CCOCCc1nn2c(=O)cc(COC(=O)c3ccc(OC)c(OC)c3)nc2s1
→ nt	-0.18
90: Cc1nc(-c2ccc(F)cc2)c(CC(=O)O)s1
→ -1.71	-0.31

Continued.
Values run as follows: CDC25B-CDK2 inh	HIV TAR-Tat
91: O=C(NCCc1ccccc1)C1=Cc2cc(Br)ccc2OC=C1
→ -1.18	-0.95
92: O=C(Nc1nn[nH]n1)C1(c2ccccc2)CCCC1
→ -0.57	0.41
93: CC1(C)CC(=O)c2sc(NC(=O)C(C)(C)C)nc2C1
→ -0.47	-1.96
94: C=CC(C)(O)CC[C@]1(C)[C@H]2CC(=O)C=C(C)[C@]2(C)C[C@@H](O)[C@@H]1C (stereo partly drawn)
→ 1.36	9.45
95: CCCCNC(=O)c1cc(CC)on1
→ 1.69	1.08
96: O=C(Oc1ccc(-n2cnnn2)cc1)c1ccc(Br)cc1
→ -1.6	0.54
97: CCOCCCN[C@H]1CS(=O)(=O)C[C@@H]1S(=O)(=O)c1ccccc1
→ -2.07	0.44
98: O=C(NCc1ccccn1)C(=O)NCC(c1cccs1)S(=O)(=O)c1cccs1 (stereo not drawn)
→ nt	1.41
99: Cc1cc(N)c2ccccc2[n+]1CCCCCCCCCC[n+]1c(C)cc(N)c2ccccc21
→ -2.01	nt
100: S=c1nc(-c2ccccc2)n(-c2ccccc2)[nH]1
→ -2.63	nt
101: Cn1ccc2cc(S(=O)(=O)N3CCC(C(=O)NC4CCCCC4)CC3)ccc21
→ nt	0.43
102: CC(=O)N1N=C(c2cccs2)CC1c1cn(-c2ccccc2)nc1-c1cccs1 (stereo not drawn)
→ -2.77	1.22
103: CCOc1ccc(/C=C/c2nc(C#N)c(N3CCC(C)CC3)o2)cc1
→ -1.41	2.18
104: CC(C)n1c(C2CC(=O)N(c3ccc(F)cc3)C2)nc2ccccc21 (stereo not drawn)
→ -0.79	-0.4
105: Cc1ccc(CNS(=O)(=O)c2cc3c(cc2C)N(C)CCO3)cc1
→ nt	1.48

(more compounds)
Values run as follows: CDC25B-CDK2 inh	HIV TAR-Tat
106: C(=C\c1nc2ccccc2n1CCOc1ccccc1)/c1ccco1
→ 0.36	-6.2
107: Cn1nnnc1SCCNCc1cccc(Cl)c1
→ -1.5	0.66
108: COc1ccccc1-c1nnc(SCC(=O)c2ccccc2)o1
→ -12.6	1.51
109: COC(=O)c1sccc1S(=O)(=O)N1CCC(C)CC1
→ nt	1.04

No enrichment for hits; any-hit rate near 0.97%.
